High-throughput results (PubChem)
PrP UTR inh – inhibition of PrP 5' UTR reporter expression. cell-based PrP 5' UTR mRNA reporter, plate reader. inhibition, % (concentration not given with the values). 340,000 compounds, 0.35% hits. AID 488862;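 active = every replicate at 50% or more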;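 note: 0 = median of the neutral control wells; tested in H4 reporter cells; numbers are from one replicate; inactives centre near -14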
Autofluor counter – counter-screen for toxin protease inhibitors: compound fluorescence | fluorescence intensity (concentration not given with the values) | compound autofluorescence counterscreen, microsphere flow cytometry; hits give high values | 360,000 compounds, 3.1% hits | AID 624483;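 active = at least 3 SD above the mean of all compounds, about 16000 in these data; inconclusive = too few beads counted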;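 note: 100 nL of 1 mM stock went into each well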
BJeLR lethal – BJeLR cell viability loss. BJeLR (HRASV12) viability, CellTiter-Glo ATP luminescence, 48 h; reference of the scale not given here. inhibition, % (test concentration not listed). 300,000 compounds, 0.17% hits;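 active = replicate mean above 50%; inconclusive = above 50% but judged a plate artefact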;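 note: 50 nL library stock added to about 25 µL; numbers are from one replicate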
ugtP null kill – kills S. aureus RN4220 lacking UgtP; S. aureus RN4220 ugtP deletion, OD600 growth, 16 h; some inactives read as strong as hits; growth inhibition, % (no concentration beside the values); 330,000 compounds, 0.54% hits;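 active = z-score under -3 and OD600 up to 0.15 on both plates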;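 note: plate controls were untreated wells for no effect and antibiotic for full effect; wells of about 80 µL received 100 nL stock; the first replicate is given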
RN4220 kill – S. aureus RN4220 growth inhibition; OD600, 16 h; inhibition, % (no concentration beside the values); 330,000 compounds, 0.33% hits;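 active = z-score of -3 or lower and OD600 up to 0.18 on both plates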;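 note: plate controls were untreated cells for no effect and reference antibiotic for full effect; stock transfer was 100 nL into about 80 µL; one replicate is shown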
Mtb hypoxia rep – inhibitors of hypoxia-regulated fluorescent reporter in Mycobacterium tuberculosis; M. tuberculosis hypoxia-regulated fluorescent reporter, fluorescence; fluorescence inhibition, % (no concentration beside the values); 300,000 compounds, 0.1% hits; AID 1159583;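 active = 35 to 45% if threefold the growth effect, above 45% if 1.5-fold the growth effect; inactive = the rest, general growth blockers included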;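 note: wells of about 50 µL received 100 nL stock; 0% = vehicle wells and 100% = reference inhibitor wells; whole bacteria with a GFP reporter of the hypoxia response; strong numbers were not always called active; many hits fall short of the cut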
Mtb hypoxia rep growth – recorded beside Mtb hypoxia rep, whose call it bears; growth inhibition, %; measured here: M. tuberculosis growth (absorbance);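 0% = vehicle and 100% = reference antibiotic; read after six days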
Starred values were filed as active, the others as inactive; ? = inconclusive; / = not tested or not shown.

SMILES	PrP UTR inh	Autofluor counter	BJeLR lethal	ugtP null kill	RN4220 kill	Mtb hypoxia rep	Mtb hypoxia rep growth
Cc1cnc(CN(C)C(=O)c2ccc3oc(Cc4ccc(Cl)cc4)nc3c2)[nH]1	-5.4	5386	8.2	3.2	-0.2	2.9	8.5
CCN(CC)C(=O)CSc1nnc2nnc3cc(OC)ccc3n12	/	/	-0.9	2.2	4.6	66.4*	38.3*
CC(C)[C@H](NC(=O)c1ccccc1)C(=O)O	-15.4	4723	0.8	12.4	1.4	4.6	2.9
CCOC(=O)C1=C(CN2CCN(C(=O)c3ccco3)CC2)NC(=O)NC1c1ccccc1 (configuration not stated)	-1.3	5326	-1.8	-1.8	1.2	-14.7	-4.6
CCC(=O)c1ccc(OCC(=O)OCC(=O)c2c(N)n(C)c(=O)n(C)c2=O)cc1	-27.4	3902	/	2.0	5.3	4.7	-0.3
COc1cc(OC)c2ccc(=O)oc2c1C(CCN1CCCC(C)C1)c1ccc(N(C)C)cc1 (configuration not stated)	-5.9	4156	1.4	2.5	-1.0	9.8	15.2
CCOC(=O)C1CCCN(C(=O)/C=C/c2ccc(OC)cc2)C1 (configuration not stated)	-13.7	2502	4.0	4.7	1.3	-4.0	0.0
CCC(C(=O)NCCc1ccccc1)c1ccccc1 (configuration not stated)	-15.7	3409	-8.2	7.4	4.0	11.4	9.5
COc1ccc(NC(=O)COc2coc(CN3CCc4ccccc4C3)cc2=O)cc1	-28.8	5529	3.3	4.2	1.8	9.1	5.1
CCC(C)N(C(=O)COC(=O)C1C(C(=O)OC)=C(C)NC(C)=C1C(=O)OC)C1CCS(=O)(=O)C1 (configuration not stated)	-15.2	2285	-8.4	1.2	7.8	-2.6	-7.7
NC(=O)CSc1nc2ccccc2c(=O)n1Cc1ccco1	-3.6	4685	-1.5	-2.5	-0.5	/	/
COc1ccc(OCC(=O)NS(=O)(=O)c2ccc(Cl)cc2)cc1	-27.3	6392	-9.7	7.3	6.2	-0.4	-3.3
COc1ccc(CN2CCNC(=O)C2CC(=O)NCCc2nc(C)c3c(n2)CCC3)cc1C (configuration not stated)	-2.4	5758	3.8	10.5	1.9	3.5	1.5
Cc1cccc(C)c1OCc1cc(C(=O)NCC2COCCO2)no1 (configuration not stated)	-3.0	6140	-7.6	1.2	-0.5	9.4	15.1
CC1=C(C(=O)OCC(C)C)C23C(=O)c4ccccc4C2(O1)OC(N)=C3C#N (configuration not stated)	-15.0	9987	9.4	6.7	6.7	14.8	5.5
COc1ccc(NC(=O)C2CCCN2S(=O)(=O)c2cccc3nsnc23)c(OC)c1 (configuration not stated)	11.2	5936	1.7	0.4	-1.1	-4.0	5.7
Cc1ccc(C(=O)NCc2ccccn2)cc1S(=O)(=O)N1CCOCC1	-22.0	3588	/	2.7	2.7	11.7	-4.1
COc1ccc(C(CNC(=O)CCNS(=O)(=O)c2ccc(C)cc2)N2CCOCC2)cc1 (configuration not stated)	-9.6	/	-1.1	4.2	4.6	-5.3	5.9
CN1CCN(C(=S)NC(=O)/C=C/c2ccccc2)CC1	-20.5	10662	1.1	0.7	3.7	4.7	5.5
O=C1/C(=C2\C(=O)N(Cc3ccc(F)cc3)c3ccccc32)SC(=S)N1CCS(=O)(=O)O	-8.7	3986	-0.6	-3.4	1.3	16.2	9.6
CC(C)(C)NC(=O)Cn1c(-c2nonc2N)nc2ccccc21	-13.1	4602	-17.1	9.2	0.1	/	/
Cc1cccn2c(CN(C)C3CCOC3)c(C(=O)N3CCCCC3)nc12 (configuration not stated)	-33.5	4280	0.7	0.0	7.2	13.9	1.5
Cc1nc2sc(C(=O)c3ccccc3)c(N)c2c2c1CCCC2	-68.5	1945	-14.1	33.5	0.2	3.1	8.3
O=C(O)c1ccc(-c2cccc(Cl)c2)o1	-15.4	23409*	-0.1	-6.9	3.2	-1.8	0.1
CC(C)N1CCc2c(sc(NC(=O)c3ccc(C(=O)c4ccccc4)cc3)c2C(N)=O)C1	-6.7	6022	13.0	/	/	/	/
Cc1ccc(C)c(S(=O)(=O)N2CCCCC2CCNC(=O)C(=O)NC2CC2)c1 (configuration not stated)	-13.5	6068	0.5	4.5	1.2	3.9	1.4
CCCCNC(=O)CCc1c(C)nc2nc(-c3cc(OC)cc(OC)c3)nn2c1C	-5.5	4291	-2.5	-2.0	-0.6	-3.5	6.1
COc1ccc(Br)cc1C(=O)NN=Cc1ccc([N+](=O)[O-])cc1	/	/	/	0.3	-2.9	-1.7	3.0
CC1OC(OC2CC[C@@]3(C)C(CC[C@]4(C)C3C=CC3=C5CC(C)(C)CC[C@]5(CO)C(O)C[C@]34C)[C@]2(C)CO)C(O)C(OC2OC(CO)C(O)C(O)C2O)C1O (some centres not stated)	/	/	/	4.0	0.9	-2.9	5.9
O=C(Nc1ccc(N2CCN(C(=O)c3ccccc3)CC2)cc1)c1ccc2c(c1)OCO2	-3.7	3531	-0.2	0.9	2.9	10.3	17.2
COc1ccc(C(=O)NNC(=O)C(C)NC(=O)c2ccccc2NC(=O)c2ccco2)cc1 (configuration not stated)	-36.6	2199	-2.4	7.1	0.8	8.5	1.8
CCOC(=O)c1c(C)c(P(=S)(N2CCOCC2)N2CCOCC2)n(C)c1C	-8.8	3196	14.6	-3.6	-12.4	15.3	7.5
CCOc1ccccc1C(=O)NC1CCN(Cc2nnnn2C2CCCC2)CC1	3.7	22337*	-9.1	4.9	5.2	0.9	-0.3
Cc1cccc(NC(=O)C2CC(=O)N/C(=N/N=C/c3ccco3)S2)c1 (configuration not stated)	-12.6	1924	-11.5	/	/	/	/
Cc1cc(C)c(NC(=O)C2CC(=O)N(C(C)C)C2)c(C)c1 (configuration not stated)	-28.4	3787	-2.1	5.3	5.2	11.8	6.0
Cc1ccccc1C(=O)ON=C(c1ccccc1)c1ccccn1	/	/	/	-0.1	3.9	5.2	1.0
CCCc1ccc(NC(C)C(=O)Nc2ccc(S(=O)(=O)N3CCOCC3)cc2)cc1 (configuration not stated)	-8.6	5682	/	-0.6	-1.8	6.5	11.8
COC(=O)c1c(NC(=S)Nc2ccccc2Cl)sc(C)c1C	2.4	5440	-1.8	-4.9	12.5	6.7	15.0
CC(c1nccs1)N(C)C(=O)c1ccc(OC2CCN(CCc3ccccc3)CC2)cc1 (configuration not stated)	-13.7	6746	7.2	0.6	-0.2	3.3	4.9
Cc1ccccc1NC(=O)c1ccc(Cn2cc([N+](=O)[O-])cn2)o1	-24.5	2229	-2.1	5.6	1.5	18.3	2.8
COCCNC(=O)[C@H](C)[C@H]1C[C@]1(C)[C@H](NC(=O)OCc1ccccc1)c1ccccc1	-11.8	4254	1.6	/	/	/	/
CCn1nccc1C(=O)Nc1ccc(C(=O)OC(C)C)cc1	-35.5	3523	2.0	-1.6	3.0	-9.6	-1.5
CC(C)(C)c1cc(NCCCn2ccnc2)n2ncc(-c3ccccc3)c2n1	-98.7	/	-10.4	85.5*	58.0	7.2	19.9
O=C1N/C(=C/c2cccs2)C(=O)N1Cc1ccc(F)cc1	-9.8	4489	-0.2	5.3	-1.8	16.2	12.2
CCOc1ccc(NC(=O)[C@@H](NC(=O)c2ccccc2)[C@@H](C)CC)cc1	-11.1	?	-10.7	/	/	/	/
Cc1ccc(NC(=O)C2CC(=O)NC(N3CCc4ccccc43)=N2)cc1 (configuration not stated)	-18.9	9872	-1.8	1.5	2.8	-91.5	-27.7
CCCCOc1ccccc1NC(=O)Cn1c(-c2nonc2N)nc2ccccc21	3.4	4518	33.9	5.7	7.7	10.1	5.5
COc1ccc(NC2=C(Cl)C(=O)N(CCc3ccccc3)C2=O)c(OC)c1	-22.6	1843	-7.3	38.9	-5.7	13.6	4.0
Nc1nc2n(n1)C(=O)CC(c1ccc(Cl)cc1)N2 (configuration not stated)	-13.8	3980	24.5	/	/	/	/
O=C1NC(=S)NC(=O)C1Nc1ccc(Cl)cc1	-20.0	2936	/	-2.9	-0.1	0.4	5.7
Later entries
SMILES	PrP UTR inh	Autofluor counter	BJeLR lethal	ugtP null kill	RN4220 kill	Mtb hypoxia rep	Mtb hypoxia rep growth
Cc1cc(C(F)(F)F)n(-c2nc(C(=O)O)cs2)n1	-17.9	2049	8.3	10.0	0.6	11.6	2.0
COc1ccc(N(CC(=O)NCCSCc2ccco2)S(=O)(=O)c2ccccc2)cc1OC	-11.6	5277	8.3	1.0	0.8	2.6	8.4
Cc1nnc(NC(=O)CSc2nccn2-c2cccc(C)c2C)s1	-89.0	4477	18.9	1.5	-13.4	0.2	-0.9
Cc1c(NC(=O)CSc2ccccn2)c(=O)n(-c2ccccc2)n1C	-15.5	4512	-0.9	14.6	-0.3	/	/
Cc1cccc(OCC(=O)NN=Cc2cn[nH]c2-c2ccc(Cl)c(Cl)c2)c1	/	/	/	-33.5	-2.3	-4.5	2.5
CCOC(=O)c1cnc2c(cnn2C)c1NCc1ccc(OC)cc1	-5.8	4144	-5.8	2.4	2.2	-7.8	-3.5
Cc1cccc2sc(NC(=O)CN3C(=O)c4ccccc4C3=O)nc12	-12.8	2531	0.0	-3.2	6.7	2.6	4.8
COc1ccc(CCNC(=O)C2CCC(CNS(=O)(=O)c3ccc(F)cc3)CC2)cc1OC (configuration not stated)	-11.3	3374	2.8	7.3	2.1	3.2	7.1
O=c1c2ccccc2nc(SCc2cc([N+](=O)[O-])cc3c2OCOC3)n1-c1ccccc1	-14.4	2165	-3.1	7.4	1.3	7.3	-1.6
CCn1c(=O)c(C(=O)NCc2ccc(Cl)cc2)c(O)c2ccccc21	-17.7	3888	-2.4	26.0	4.5	11.1	9.4
CCO[C@@H]1OC(C(=O)NC2CC2)=C[C@H](C(C)(C)C)[C@H]1CCCO	-9.9	3960	8.9	/	/	/	/
O=P(c1ccccc1)(c1nc2ccccc2s1)N1CCOCC1 (configuration not stated)	-2.9	?	-3.1	1.7	0.2	-7.4	-9.0
Cc1ccccc1OCC(=O)NNC(=O)Cn1[nH]c(=O)c2ccccc2c1=O	-5.9	4457	/	4.6	0.7	5.1	1.1
CN(Cc1ccccc1)C(=O)COC(=O)/C=C/c1ccc2c(c1)OCO2	5.9	2977	/	6.7	5.4	2.4	-3.6
Cc1ccc(-c2nc3c(cnn3-c3ccccc3)c(=O)o2)cc1	2.0	5954	-4.2	10.3	5.0	5.2	0.8
O=C/C(=C\Nc1ccccn1)c1nc2cc(Cl)ccc2o1	-15.7	3820	8.3	-10.9	-1.8	/	/
Cc1cc(C)n(-c2ccc(C(=O)OC(C)C)cc2)n1	-2.9	9211	2.1	24.6	8.5	6.2	1.3
CCOc1ccc(S(=O)(=O)Nc2ccc(C(=O)N/N=C(\C)c3ccc(-n4ccnc4)cc3)cc2)cc1	-10.6	3698	-17.3	/	/	/	/
Cc1ccc(N(C(=O)c2ccncc2)C2C=CS(=O)(=O)C2)cc1 (configuration not stated)	-6.8	5514	-3.3	-0.6	0.9	/	/
O=C(COC(=O)Cn1cc(C(F)(F)F)ccc1=O)NCc1ccccc1	-23.9	7810	/	5.7	1.3	1.3	2.4
CCOC(=O)c1cc(-c2ccc(Cl)cc2)nc2onc(C)c12	/	/	-0.1	-4.8	-7.1	3.1	10.8
CCC(=O)Nc1nc2ccccc2n1Cc1ccc(Cl)cc1	-3.9	3355	1.1	-4.0	9.7	-2.2	-2.0
CCOc1ccccc1N1CCN(C(=S)NCc2ccccc2)CC1	-0.3	1976	-3.3	11.4	2.9	17.9	4.6
CNS(=O)(=O)c1ccc2ccccc2c1	-17.8	5126	5.8	-2.1	6.2	16.4	4.5
COC(=O)c1sccc1-n1cccc1C(=O)C(=O)N1CCOCC1	3.1	4057	-4.0	10.4	4.8	6.3	-0.2

No new results follow: an excerpt of the list.
SMILES	PrP UTR inh	Autofluor counter	BJeLR lethal	ugtP null kill	RN4220 kill	Mtb hypoxia rep	Mtb hypoxia rep growth
O=C(COC(=O)Cn1cc(C(F)(F)F)ccc1=O)NCc1ccccc1	-23.9	7810	/	5.7	1.3	1.3	2.4
CCOC(=O)c1cc(-c2ccc(Cl)cc2)nc2onc(C)c12	/	/	-0.1	-4.8	-7.1	3.1	10.8
CCC(=O)Nc1nc2ccccc2n1Cc1ccc(Cl)cc1	-3.9	3355	1.1	-4.0	9.7	-2.2	-2.0
CCOc1ccccc1N1CCN(C(=S)NCc2ccccc2)CC1	-0.3	1976	-3.3	11.4	2.9	17.9	4.6
